# Assay outcomes deposited in PubChem by National Center for Advancing Translational Sciences (NCATS).
# Methyltransferases: Primary Screen for Target Class Profiling of Small Molecule Inhibitors of Methyltransferases. AID 1745853, 2022. actives 3.9% (n = 25,000). purified enzyme, MTase-Glo SAH luminescence; active compounds read low. calls only at 40 µM; active = -50% or lower on at least one of six enzymes; inconclusive = the cases between; inactive = as a rule above -30% on all six;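 further: enzymes were COMT GAMT GNMT HNMT NNMT and PNMT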
#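 Each enzyme was reacted with SAM and its substrate, with compounds tested once at 40 uM; SAH formed was read by MTase-Glo luminescence.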
# Calls only; i = inactive; u = inconclusive; + = active, no number; ! = repeats disagree. On the % scale 0 is the no-effect control and ±100 the full control effect. An excerpt; rates above refer to the full screens.
# The opening 2 records (preview)
SMILES,Methyltransferases
C/C(=C\C(=O)C(C)C1CCC2C3=C(CCC21C)C1(C)CCC(=O)C(C)(C)C1(O)CC3)C(C)(C)O (stereo not drawn),i
CNC1CCC(N(Cc2cccc(-c3ccncc3)c2)C(=O)c2sc3c(F)ccc(F)c3c2Cl)CC1 (stereo not drawn),+!

# The whole of this part, from the first entry:
SMILES,Methyltransferases
C/C(=C\C(=O)C(C)C1CCC2C3=C(CCC21C)C1(C)CCC(=O)C(C)(C)C1(O)CC3)C(C)(C)O (stereo not drawn),i
CNC1CCC(N(Cc2cccc(-c3ccncc3)c2)C(=O)c2sc3c(F)ccc(F)c3c2Cl)CC1 (stereo not drawn),+!
CC(C)CCNC(=O)C1(C)Cn2nc(C(=O)NCCc3ccco3)cc2C(=O)N1C (stereo not drawn),i
CCc1nc(-c2c3n(c(=O)n(CC(=O)Nc4cccc(C)c4)c2=O)CCCCC3)no1,i
CCCN1CCC2(CCN([S+](=O)([O-])c3cccs3)CC2)Oc2ccccc21,i
Cc1cc2c(cc3n2CC(C)(C(=O)NC2CCCCCC2)N(Cc2ccc(OC(C)C)cc2)C3=O)o1 (stereo not drawn),i
COc1ccccc1CNC(=O)C1(C)Cn2c(cc3ccccc32)C(=O)N1Cc1cccc(F)c1 (stereo not drawn),i
COCCn1ncc(N2CCC(C(=O)N3CCN(C(C)C)CC3)C2)cc1=O (stereo not drawn),i
Cc1ccccc1-c1cc(N2CCN(C)CC2)ncc1N(C)C(=O)C(C)(C)c1cc(C(F)(F)F)cc(C(F)(F)F)c1,i
CC(=O)OCC1=C[C@H](O)[C@@H]2C(C(=O)O)=CO[C@@H](O[C@@H]3O[C@H](CO)[C@@H](O)[C@H](O)[C@H]3O)[C@H]12,i
COc1ccc(CNC(=O)C2(C)Cn3cnc(C(=O)Nc4ccc(C)cc4)c3C(=O)N2C2CC2)cc1 (stereo not drawn),i
CC(C)Cn1c(=O)c2ccccc2n2c(CCC(=O)NCc3ccc(F)cc3)nnc12,i
CCn1ccc(C(=O)N2CC(c3nc(CCOCC4CC4)no3)C2)n1,i
CN1C(=O)c2cc(C(=O)N3CCCC3)nn2CC1(C)C(=O)NCc1ccc(F)cc1 (stereo not drawn),i
O=C(CCn1ccc2cc(S(=O)(=O)N3CCCCC3)ccc21)N1CCN(c2ccccc2F)CC1,i
CC(=O)Nc1c2n(c3ccccc13)CC(C)(C(=O)NC1CCCC1)N(Cc1ccccc1F)C2=O (stereo not drawn),i
O=S(=O)(NCCn1c(CCc2ccccc2)nc2ccccc21)c1ccc(C2CCCCC2)cc1,i
C=C(C)C1CC(O)C(C)C12CC(O)C1(C)OC1C2O (stereo not drawn),i
CCc1cc(N2CCC(NCCc3cccc(Cl)c3)CC2)nc(C)n1,u
CCOC(=O)c1cc2n(n1)CC(C)(C(=O)NCc1ccccc1)N(c1ccc(C)c(Cl)c1)C2=O (stereo not drawn),i
O=C(NCCc1nc2c(s1)CCCC2)C1NCCc2[nH]cnc21 (stereo not drawn),i
CCCN1C(=O)c2c(C(=O)NCc3ccc(OC(C)C)cc3)ncn2CC1(C)C(=O)NCc1ccc(F)cc1 (stereo not drawn),i
Cc1nc(CN2C[C@H](C(=O)N3CCN(CCO)CC3)C[C@@H]2c2ccc(F)cc2)cs1,i
CC1(C(=O)NC2CCCCC2)Cn2c(c(-n3cccc3)c3ccccc32)C(=O)N1Cc1ccco1 (stereo not drawn),i
CC[C@@H](C)[C@H]1O[C@]2(CC[C@H]1C)C[C@@H]1C[C@@H](CC=C(C)[C@@H](O[C@H]3C[C@H](OC)[C@@H](O[C@H]4C[C@H](OC)[C@@H](O)[C@H](C)O4)[C@H](C)O3)[C@@H](C)C=CC=C3CO[C@@H]4[C@H](O)C(C)=C[C@@H](C(=O)O1)[C@]34O)O2,i
CC(C)(C)c1ccc(CN2CCN(C(c3ccccc3)c3ccc(Cl)cc3)CC2)cc1 (stereo not drawn),u
CCOC(=O)c1cc2n(n1)CC(C)(C(=O)NC1CCC(C)CC1)N(c1ccc(Cl)cc1C)C2=O (stereo not drawn),i
CCOC(=O)c1cc2n(n1)CC(C)(C(=O)NCc1ccc(C)cc1)N(CCc1cccs1)C2=O (stereo not drawn),i
COC(=O)c1cc2n(n1)CC(C)(C(=O)NC1CCCC1)N(c1ccc(OC)cc1)C2=O (stereo not drawn),i
O=C(CCn1ccc2cc(S(=O)(=O)N3CCCCC3)ccc21)N1CCN(c2ccccn2)CC1,i
CC1(C)CC[C@]2(C(=O)O[C@@H]3O[C@H](CO)[C@@H](O)[C@H](O)[C@H]3O)CC[C@]3(C)C(=CCC4[C@@]5(C)C[C@@H](O)[C@H](O)[C@](C)(C=O)C5CC[C@]43C)[C@@H]2[C@@H]1O (stereo partly drawn),u
CC1(C(=O)NC2CCCCC2)Cn2nc(-c3ccco3)cc2C(=O)N1Cc1ccco1 (stereo not drawn),i
Cn1c(=O)c2ccc(C(=O)NC3CCCC3)cc2n2c(=O)n(CC(=O)Nc3cccc(F)c3)nc12,i
CC(C(=O)Nc1cc(C#N)ccc1CCCC(=O)O)c1ccc(F)c2ccccc12 (stereo not drawn),i
Cc1nc([C@@H]2CN(C(=O)CCc3c(C)noc3C)C[C@H]2C(N)=O)n[nH]1,i
CCN(CC)CCCNC(=O)c1cc2n(n1)CC(C)(C(=O)NC1CCCCC1)N(C)C2=O (stereo not drawn),i
CC1(C(=O)NC2CCCC2)Cn2c(cc3ccccc32)C(=O)N1Cc1ccccc1F (stereo not drawn),i
O=C(O)c1cc(-c2ccncc2)cc(S(=O)(=O)N2CCCCCC2)c1,i
C/C=C/C=C/C(=O)OC1CC/C=C/C(O)C(O)C(CCC)OC1=O (stereo not drawn),i
CC1(C(=O)NC2CCCCCC2)Cn2c(cc3sccc32)C(=O)N1Cc1cccs1 (stereo not drawn),i
CC1(C(=O)NCc2ccc(F)cc2)Cn2cnc(C(=O)Nc3ccc(F)cc3Cl)c2C(=O)N1C1CC1 (stereo not drawn),i
CN1C(=O)c2cc(C(=O)NCCc3ccccc3)nn2CC1(C)C(=O)NC1CCCCC1 (stereo not drawn),i
CC1=CC(=O)[C@]2(O[C@@H]3O[C@@H](C)[C@H](O)[C@@H](O)[C@H]3OC(=O)/C=C/c3ccccc3)C=CO[C@@H](O[C@@H]3O[C@H](CO)[C@@H](O)[C@H](O)[C@H]3O)[C@H]12,i
COc1ccc(-c2cc3n(n2)CC(C)(C(=O)NC2CCCCC2)N(Cc2ccccc2C)C3=O)cc1 (stereo not drawn),i
O=C1CCCCN1CCNc1ccc(-c2nc(-c3ccccc3F)no2)cn1,i
O=C(Nc1cccc(-c2nnc3n2CCCC3)c1)c1ccccn1,i
Cc1ccc(C)c(N2C(=O)c3cc4occc4n3CC2(C)C(=O)NC2CCCCCCC2)c1 (stereo not drawn),i
C[C@H](C(=O)N1CCOCC1)C1CC[C@@]2(C)Cc3sc(-c4ccccc4)nc3[C@@H](C)[C@@H]2[C@H]1O (stereo partly drawn),i
COc1ccccc1-c1[nH]nc2ncc(C(=O)N3CCN(Cc4ccccc4)CC3)nc12,+
COC(=O)c1ccc2c(c1)C1C=CCC1C(c1cccc3ccccc13)N2 (stereo not drawn),i
CCOc1ccc(C(=O)Cn2nc3n(CC(C)C)c(=O)c4ccc(C(=O)NC(C)C)cc4n3c2=O)cc1,i
O=C(OCC1=C[C@@H](O)[C@@H]2C=CO[C@@H](O[C@@H]3O[C@H](CO)[C@@H](O)[C@H](O)[C@H]3O)[C@H]12)c1ccc(O)cc1,i
Cn1c(=O)n(C)c2cc(S(=O)(=O)Nc3ccc(N4CCN(S(C)(=O)=O)CC4)cc3)ccc21,i
COC(=O)C1=CN(Cc2cccc(Cl)c2)S(=O)(=O)N=C1C,i
CC1CCCCC1NC(=O)C1c2cccn2CC(=O)N1CCc1ccc(Cl)cc1 (stereo not drawn),i
C=CC(=O)N1CCN(C(=O)CNc2cc(I)c(Cl)cc2O)CC1,u
CC1(C(=O)NCc2ccccc2)Cn2c(cc3ccccc32)C(=O)N1Cc1ccc(F)cc1 (stereo not drawn),i
N#Cc1ccc(-n2nc(C3CCOCC3)nc2C2(C(N)=O)CC2)cc1,i
CNC(=O)[C@@H]1C[C@H](Oc2ccccc2)CN1S(=O)(=O)c1cccs1,i
COc1cc(NS(=O)(=O)c2cc3c(cc2Cl)n(C)c(=O)n3C)cc(OC)c1,i

# Some of these compounds in order of number of heavy atoms, low to high.
SMILES,Methyltransferases
O=C(Nc1cccc(-c2nnc3n2CCCC3)c1)c1ccccn1,i
N#Cc1ccc(-n2nc(C3CCOCC3)nc2C2(C(N)=O)CC2)cc1,i
O=C1CCCCN1CCNc1ccc(-c2nc(-c3ccccc3F)no2)cn1,i
C[C@H](C(=O)N1CCOCC1)C1CC[C@@]2(C)Cc3sc(-c4ccccc4)nc3[C@@H](C)[C@@H]2[C@H]1O (stereo partly drawn),i

# Already shown: entries from further up.
SMILES,Methyltransferases
CC1(C(=O)NCc2ccc(F)cc2)Cn2cnc(C(=O)Nc3ccc(F)cc3Cl)c2C(=O)N1C1CC1 (stereo not drawn),i
CN1C(=O)c2cc(C(=O)NCCc3ccccc3)nn2CC1(C)C(=O)NC1CCCCC1 (stereo not drawn),i

# Next part.
SMILES,Methyltransferases
COC1CCN(C(=O)Nc2ccccc2)CC(=O)N(C)c2ccccc21 (stereo not drawn),i
CC1CCC(C(=O)N(c2cc(C#CC(C)(C)C)sc2C(=O)O)C2CCC(O)CC2)CC1 (stereo not drawn),u
Cc1ccc(S(=O)(=O)c2nnn3c2nc(N2CCN(c4ccccn4)CC2)c2ccccc23)cc1C,i
O=C(Nc1ccccc1C(F)(F)F)N1CCn2cccc2C1Cc1ccccc1 (stereo not drawn),i
CN(C)CCN1CC2(CCCN(C(=O)CCCn3cnnn3)C2)CCC1=O (stereo not drawn),i
CC1(C(=O)N2CCc3ccccc32)CCCCC(=O)N1 (stereo not drawn),i
Cc1ccc(CN2C(=O)c3ccc(-c4ccco4)n3CC2(C)C(=O)NC2CCCCC2C)cc1 (stereo not drawn),i
CC/C=C\CC1C(=O)C=CC1(CCCCCCCC(=O)O)OC(C)=O (stereo not drawn),i
CCOc1ccc(CCNC(=O)CCc2nnc3n(CCC(C)C)c(=O)c4ccccc4n23)cc1,i
COCCCN1C(=O)c2cc3occc3n2CC1(C)C(=O)NC1CCCCC1 (stereo not drawn),i
CN1C(=O)c2cc(C(=O)NCCCc3ccccc3)nn2CC1(C)C(=O)NC1CCCC1 (stereo not drawn),i
C/C=C/C=C/C=C/C(=O)N(C)C(C(=O)NC(C)C(=O)N1CCCC1C(N)=O)C(C)C (stereo not drawn),i
CCOc1ccc(NC(=O)N2Cc3c(sc4c3CCCC4)-n3cccc3C2c2ccccc2)cc1 (stereo not drawn),i
Cc1ccoc1C(=O)N1CC[C@@H]2CN(S(C)(=O)=O)[C@@H]2C1,i
C=CCC/C=C/C#CCCCCCCCC[C@H]1C(=O)O[C@H](C)[C@@H]1O,i
CCN(CCc1nc2ccc(C)cc2[nH]1)C(=O)c1ccccc1C1CCNC1 (stereo not drawn),+
CCOc1ccccc1CN1CCC2(CCN(C(=O)c3ccccc3C)CC2)Oc2ccccc21,i
Cc1cc(C)cc(NC(=O)CCc2nnc3n(Cc4ccccc4)c(=O)c4ccccc4n23)c1,i
CN1CCN(Cc2ccc(NC(=O)Nc3ccc(Oc4cc(NC(=O)C5CC5)ncn4)cc3)cc2C(F)(F)F)CC1,+
CC/C=C\CC1C(=O)CCC1CC(=O)OC (stereo not drawn),u

# Quoted at random: five compounds from above.
SMILES,Methyltransferases
Cc1cc(C)cc(NC(=O)CCc2nnc3n(Cc4ccccc4)c(=O)c4ccccc4n23)c1,i
Cc1ccc(CN2C(=O)c3ccc(-c4ccco4)n3CC2(C)C(=O)NC2CCCCC2C)cc1 (stereo not drawn),i
CCN(CCc1nc2ccc(C)cc2[nH]1)C(=O)c1ccccc1C1CCNC1 (stereo not drawn),+
C/C=C/C=C/C=C/C(=O)N(C)C(C(=O)NC(C)C(=O)N1CCCC1C(N)=O)C(C)C (stereo not drawn),i
Cc1ccoc1C(=O)N1CC[C@@H]2CN(S(C)(=O)=O)[C@@H]2C1,i

# The list goes on:
SMILES,Methyltransferases
CCOCCCNC(=O)N1Cc2c(sc3c2CCCC3)-n2cccc2C1c1cccc(OCC)c1 (stereo not drawn),i
COC(=O)c1cc2n(n1)CC(C)(C(=O)NC1CCCCCC1)N(Cc1cccc(OC)c1)C2=O (stereo not drawn),i
CC(CCc1ccccc1)NC(=O)Cn1ccc2cc(S(=O)(=O)N3CCCCC3)ccc21 (stereo not drawn),i
Cc1cccc(-n2cc(CN(C)C(C)c3ccon3)c(-c3cccc(F)c3)n2)c1 (stereo not drawn),i
CCCN1C(=O)c2cc3occc3n2CC1(C)C(=O)NC1CCC(C)CC1 (stereo not drawn),i
O=C1COc2ccc(N3CCOCC3)nc2CN1Cc1ccc(F)cc1,i
Cc1ccsc1C(=O)N1CC(Oc2ccccc2-c2nc(-c3cnccn3)no2)C1,i
CC(=O)NCCC(=O)N1CCC2(CC1)CN(C(=O)NC(C)C)CCO2,i
CCN1CCN(C(=O)C2CCc3ncc(-c4ccsc4)n3C2)CC1 (stereo not drawn),i
COc1cccc(C(c2sc3nc(-c4ccco4)nn3c2O)N2CCN(C)CC2)c1 (stereo not drawn),u
COc1ccc(-c2cc3n(n2)CC(C)(C(=O)NCc2ccccc2)N(Cc2ccc(C)cc2)C3=O)cc1 (stereo not drawn),i
C=C1C2CCC3C(CCC4[C@@]3(C)CCC[C@@]4(C)C(=O)O)(C2)[C@@H]1OC(=O)/C(C)=C\C (stereo partly drawn),i
CCCCN1C(=O)c2ccccc2C(C(=O)Nc2nncs2)C12CCCC2 (stereo not drawn),i
O=C(NCc1ccc(F)cc1)c1cnc2n[nH]c(-c3ccccc3)c2n1,i
Cc1ccccc1NC(=O)Cn1nc2n(CC(C)C)c(=O)c3ccc(C(=O)NC(C)C)cc3n2c1=O,i
COc1ccc(-c2nnc3n2CCN([S+](=O)([O-])c2c(C)noc2C)C3)cc1,i
CC(C)(C)c1ccc(S(=O)(=O)N2CCC(n3c(=O)[nH]c4ccccc43)CC2)cc1,i
